Source: PubChem (ICCB-Longwood Screening Facility, Harvard Medical School)
Sa growth inh: S. aureus growth inhibition | relative growth, % (no concentration beside the values) | S. aureus RN4220 growth, OD600, 20 h, 42 °C; stronger effect = lower value | 170,000 compounds, 0.53% hits | AID 720641;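 active means growth at 42 °C up to 50% and 20 or more points under that at 30 °C, or under 10% at both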;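 further: 300 nL library stock went into each well; scaled to the means of positive and negative controls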
HCMV UL50-53 inh: inhibitors of HCMV UL50-UL53 nuclear egress complex interaction. HTRF UL50-UL53 interaction, normalized percent inhibition. inhibition, % (no concentration beside the values). 190,000 compounds, 0.15% hits. AID 1918969;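 active means both replicates at 50% or more, plus weaker picks with an unusually low signal ratio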;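 further: stock transfer was 100 nL into about 20 µL; 0% = negative control wells and 100% = wells with untagged competitor protein; inactives centre near -12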
GIV Gai3 FP: inhibitors of GIV GBA-motif binding to rat Galpha-i3 | AID 1224905 | percent of control (FP), % (concentration not given with the values) | Galpha-i3/FITC-GIV peptide fluorescence polarization, 90 min; stronger effect = lower value; scaled: aluminum fluoride 0%, vehicle 100% | 210,000 compounds, 0.42% hits;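 active means replicate mean at 85% of control or lower, very high polarization wells dropped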;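 further: wells of about 15 µL received 100 nL stock; the first replicate is given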
Target sequence (P08753 whole entry, looked up): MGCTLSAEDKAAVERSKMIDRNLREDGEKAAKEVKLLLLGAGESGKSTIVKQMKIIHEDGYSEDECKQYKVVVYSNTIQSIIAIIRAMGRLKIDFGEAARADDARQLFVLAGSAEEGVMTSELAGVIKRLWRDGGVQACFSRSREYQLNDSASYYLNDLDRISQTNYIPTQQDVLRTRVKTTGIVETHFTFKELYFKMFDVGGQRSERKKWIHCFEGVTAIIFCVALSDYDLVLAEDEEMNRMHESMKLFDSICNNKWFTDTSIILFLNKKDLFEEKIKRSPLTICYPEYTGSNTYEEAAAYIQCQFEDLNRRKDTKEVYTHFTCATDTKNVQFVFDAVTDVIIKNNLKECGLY
Sa growth inh second temp: also measured in Sa growth inh; calls as there; relative growth, %; measured here: growth at 30 °C;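 optical density after 20 h as mean of two plates; 100% = untreated growth and lower means inhibition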
Active calls of the source: *; . = not tested or not shown; & = joins results of further samples. Rows are unselected, and some 0.85% of all compounds hit somewhere here.

Value order – Sa growth inh | Sa growth inh second temp | HCMV UL50-53 inh | GIV Gai3 FP
> COc1ccc(COC(=O)C2=C(C)NC(=O)NC2c2cc(Br)c(O)c(OC)c2)cc1 (stereo not drawn)
    . | . | -11 | 104
> Cc1cccc(NC(=O)CCCN2C(=O)C(c3ccccc3)Oc3cccnc32)c1C (stereo not drawn)
    88 | 97 | -35 | 102
> C=C(C)CC(N)(CC(=C)C)c1ccncc1
    95 | 94 | -18 | .
> Cc1ccc(C(=O)Nc2ccnn2C(C)C)cc1
    91 | 90 | -24 | .
> Cc1nn(C)c2c1c(C(F)(F)F)cc(=O)n2C(C)C(=O)NCCC(C)C (stereo not drawn)
    108 | 87 | . | 100
> O=C(O)CCCC(=O)NC1CCCCNC1=O (stereo not drawn)
    102 | 93 | -6 | 101
> CCCCC1C(=O)NN(C2CCSC(C)(C)C2)C1=O (stereo not drawn)
    104 | 97 | -20 | .
> Cc1cccc(CN2C(=O)c3ccncc3C2=O)c1
    . | . | -60 | 105
> CC(C)CCNC(=O)c1cc(Sc2ccc(F)cc2)nc2ccccc12
    105 | 88 | . | 111
> O=C(NCC(c1ccc2c(c1)OCO2)N1CCN(c2ccccc2)CC1)c1ccccc1F (stereo not drawn)
    109 | 91 | . | 102

Value order – Sa growth inh | Sa growth inh second temp | HCMV UL50-53 inh | GIV Gai3 FP
> CCCCCn1c(=N)c(S(=O)(=O)c2ccccc2)cc2c(=O)n3ccccc3nc21
    121 | 84 | -38 | 106
> C=CCN1C(=O)/C(=C\c2cccs2)SC1=S
    103 | 94 | -16 | .
> CCOC(=O)CN(C)c1nc(-c2ccccc2)cs1
    109 | 87 | -12 | .
> S=C(NC1CC1)N1CCc2ccccc2C1
    102 | 96 | -15 | 108
> Cc1noc(C(F)(F)F)c1-c1nnc(-c2cccc(C(F)(F)F)c2)o1
    88 | 84 | -25 | 102
> Cc1cccc(-c2nc3c4c(C)c(C)n(Cc5cccnc5)c4ncn3n2)c1
    . | . | -8 | 106
> Cc1ccc(NC(=O)N2CCC(n3cnc4cc(C(=O)N(C)C)ccc43)CC2)cc1C
    . | . | 1 | 97
> CCc1nc2n(n1)C(O)c1cc(N)ccc1S2 (stereo not drawn)
    75 | 97 | -7 | 111
> NC(=O)COc1ccc(-c2noc(COc3ccc(Cl)cc3)n2)cc1
    122 | 104 | 0 | 101
> CC1CC(C)CN(C(=O)CN(C)S(=O)(=O)c2cccc3cccnc23)C1 (stereo not drawn)
    88 | 91 | -3 | 104

Value order – Sa growth inh | Sa growth inh second temp | HCMV UL50-53 inh | GIV Gai3 FP
> CN(CC(=O)Nc1ccc(N2CCOCC2)cc1)C(=O)c1ccc(OC(F)F)cc1
    104 | 91 | -39 | .
> O=C1OC(C(=O)O)Cc2ccccc21 (stereo not drawn)
    108 | 88 | -15 | 102
> C=CCN1C(=O)/C(=C2/C(=O)N(S(=O)(=O)c3ccc(C)cc3)c3ccccc32)SC1=S
    . | . | -13 | 105
> COC(=O)c1ccc2c(c1)C(=O)/C(=C/c1cn(-c3ccccc3)nc1-c1ccccc1)O2
    103 | 90 | . | 116
> Cc1ccc(CNS(=O)(=O)c2cc(C(=O)Nc3ccc(C(C)C)cc3)ccc2F)cc1
    127 | 88 | . | 104
> O=C(Nc1ccc(Br)cc1)c1cc2nc(-c3ccccc3)cc(-c3ccccc3)n2n1
    96 | 83 | -68 | 105
> COc1ccc(-c2nnc(SCC(=O)c3cc(C)n(CC(F)(F)F)c3C)o2)cc1
    98 | 75 | 0 | .
> O=c1oc2ccccc2c2c1ncn2CCN1CCCC1
    99 | 97 | . | 104
> COc1cc(NC(=O)c2nnn(CC(=O)Nc3cc(C)ccc3C)c2N)cc(OC)c1
    106 | 81 | . | 104
> Cc1cc(C(=O)OCC(N)=O)c(C)o1
    113 | 90 | -14 | .

Value order – Sa growth inh | Sa growth inh second temp | HCMV UL50-53 inh | GIV Gai3 FP
> COC(=O)c1ccc(COC(=O)/C=C/c2ccc3c(c2)OCO3)o1
    98 | 96 | -27 | .
> O=C(Nc1nnc(N2CCCCCC2)s1)c1csc2c1CCCC2
    90 | 89 | -26 | 98
> Cc1cccc(-c2nc(Cn3c(SCc4cccc(C(F)(F)F)c4)nc4ccncc43)c(C)o2)c1
    107 | 82 | 8 | 103
> Cc1ccc2nc(C)cc(N3CCOCC3)c2c1
    89 | 81 | -15 | 109
> CCc1ccc(-c2nn(-c3ccccc3)cc2/C=C(/C#N)C(N)=O)cc1
    98 | 117 | 5 | 93
> COc1ccc(C)cc1-n1cnc2cc(C(=O)NC3CCCC3)ccc21
    114 | 100 | . | 106
> CCOC(=O)C1=C(CSc2nnc(-c3ccccc3OC)n2C2CCCCC2)NC(=O)NC1C (stereo not drawn)
    69 | 87 | -18 | .
> CCc1cccc(C)c1NC(=O)C1CCN(S(=O)(=O)c2c(C)noc2/C=C/c2c(C)cc(C)cc2C)CC1
    91 | 90 | . | 100
> CCOc1ccccc1-n1c(N)c(C#N)c(N)c(C#N)c1=S
    95 | 81 | . | 107
> COCC(=O)Nc1ccccc1SCc1cc(=O)n2c(ncn2C(C)C)n1
    . | . | -18 | 97

Single values from the list.
GIV Gai3 FP result of CCc1cccc(C)c1NC(=O)C1CCN(S(=O)(=O)c2c(C)noc2/C=C/c2c(C)cc(C)cc2C)CC1 is entered as 100
Sa growth inh result of CCOc1ccccc1-n1c(N)c(C#N)c(N)c(C#N)c1=S is entered as 95
Sa growth inh second temp result of CCOC(=O)C1=C(CSc2nnc(-c3ccccc3OC)n2C2CCCCC2)NC(=O)NC1C (stereo not drawn) is entered as 87

Carrying on.
Value order – Sa growth inh | Sa growth inh second temp | HCMV UL50-53 inh | GIV Gai3 FP
> NC(=O)c1ccccc1NC(=O)c1cccc(COc2ccc3c(c2)CCC3)c1
    114 | 76 | -3 | .
> COc1ccc(OC)c(CNC(=O)Cn2nc(-c3ccccc3)ccc2=O)c1
    93 | 96 | -5 | 101
> CCC(=O)N1c2ccccc2CC1C(=O)NCc1cc(OC)ccc1OC (stereo not drawn)
    113 | 91 | . | 100
> O=C(COC(=O)c1cccc(NC(=O)c2ccc(Br)cc2)c1)c1ccc(Br)cc1
    106 | 91 | -36 | 106
> O=c1c2cccnc2nc(SCc2ccccc2F)n1Cc1ccccc1
    97 | 74 | 2 | 108
> CCOC(=O)c1cnc2ccc(C)cc2c1Nc1ccc(OCc2ccccc2Cl)cc1
    94 | 74 | 0 | 101
> O=C1CC(c2ccccc2)CC(O)=C1C=Nc1ccccc1 (stereo not drawn)
    105 | 84 | . | 104
> COc1ccc(CCNC(=O)CSc2cn(CCNC(=O)c3ccccc3F)c3ccccc23)cc1OC
    95 | 100 | 8 | 101
> O=C(Cc1ccccc1F)NCCc1c[nH]c2ccccc12
    110 | 81 | -103 | 99
> Cc1cccc(NC(=O)CCn2nc(-c3ccccc3)c3ccccc3c2=O)c1
    96 | 91 | . | 104

4 entries already listed, ordered by the number in GIV Gai3 FP, highest first:
compound	GIV Gai3 FP
O=c1c2cccnc2nc(SCc2ccccc2F)n1Cc1ccccc1	108
O=C1CC(c2ccccc2)CC(O)=C1C=Nc1ccccc1 (stereo not drawn)	104
CCOC(=O)c1cnc2ccc(C)cc2c1Nc1ccc(OCc2ccccc2Cl)cc1	101
CCC(=O)N1c2ccccc2CC1C(=O)NCc1cc(OC)ccc1OC (stereo not drawn)	100

Carrying on:
Value order – Sa growth inh | Sa growth inh second temp | HCMV UL50-53 inh | GIV Gai3 FP
> Cc1nnc(N2CCN(c3ccccc3F)CC2)c2c1nnn2Cc1ccccc1
    85 | 86 | -40 | 95
> O=c1c2c(nc(NCCO)n1-c1ccccc1)-c1ccccc1CC21CCCC1
    88 | 88 | -2 | 102
> CCc1nn(CC(=O)NC(C)c2ccc3c(c2)OCCO3)c(=O)c2cc3sccc3n12 (stereo not drawn)
    105 | 77 | -1 | 100
> Cc1ccccc1C(=O)Nc1sc2c(c1C(=O)N1CCCCC1)CCC(C)C2 (stereo not drawn)
    101 | 82 | -22 | 105
> O=C(COC(=O)c1ccccn1)NCc1ccccc1
    73 | 95 | -9 | .
> Cc1c(C(=O)N(C)C)sc2[nH]c(=S)n(CCc3ccc(Cl)cc3)c(=O)c12
    100 | 85 | . | 106
> CCOC(=O)c1ccc(NC(=O)c2cc3c(=O)n(C)c4ccccc4c3n2C)cc1
    108 | 87 | -46 | 101
> Cc1[nH]nc2c1C(c1cccc(O)c1)CC(=O)N2 (stereo not drawn)
    . | . | -17 | 96
> c1ccc(COC(CN2CCCC2)CN2CCCC2)cc1
    90 | 89 | -3 | .
> COc1ccc(Nc2c(-c3ccc(OC)c(OC)c3)nc3cnccn23)cc1OC
    . | . | -24 | 106

Value order – Sa growth inh | Sa growth inh second temp | HCMV UL50-53 inh | GIV Gai3 FP
> CCc1cccc(-n2c(=O)c3cccnc3n2CC(=O)Nc2ccccc2C(=O)OC)c1
    108 | 90 | . | 109
> Cn1c(=O)n(CC(N)=O)c(=O)c2c1nc1n2CCCN1C1CCCCC1
    . | . | -29 | 101
> FC(F)Sc1nnc2sc3ccccc3n12
    99 | 94 | -3 | .
> Cc1cc(C)c(NS(=O)(=O)c2cc(-c3onc(C)c3C)ccc2C)c(C)c1
    87 | 91 | . | 98
> O=C(NC(Nc1cccc(C(F)(F)F)c1)C(=O)c1ccccc1)c1cccs1 (stereo not drawn)
    107 | 79 | . | 103
> Cc1c(CC(=O)Nc2ccc(Cl)cc2)sc2ccc(Cl)cc12
    84 | 88 | -5 | 98
> Cc1ccc(Cn2cccc2CNS(=O)(=O)c2ccc3[nH]c(=O)oc3c2)cc1
    . | . | -19 | 106
> COC(=O)c1ccccc1NC(=O)N1CCc2c(sc3c2CCCC3)C1c1ccc(F)cc1 (stereo not drawn)
    110 | 102 | . | 108
> COc1ccc(NC(=O)c2cc(-c3ccccn3)n[nH]2)c(OC)c1
    . | . | -26 | 100
> O=C(CCSc1nnc2ccccn12)Nc1cccc(-c2nc3ccccc3s2)c1
    109 | 87 | . | 99

Next section, overlapping the part above by 2 compounds.
Value order – Sa growth inh | Sa growth inh second temp | HCMV UL50-53 inh | GIV Gai3 FP
> COc1ccc(NC(=O)c2cc(-c3ccccn3)n[nH]2)c(OC)c1
    . | . | -26 | 100
> O=C(CCSc1nnc2ccccn12)Nc1cccc(-c2nc3ccccc3s2)c1
    109 | 87 | . | 99
> CCc1c(C)nc2ncnn2c1NCc1ccc(C)cc1
    . | . | -15 | 100
> CCC1CCCCN1C(=O)Cc1ccc(Cl)cc1 (stereo not drawn)
    88 | 86 | -18 | 100
> CCO/C([O-])=N/c1c[n+](N2CCOCC2)no1
    97&92 | 97&88 | -56&-63&-13&-13&-18&-10 | 103&108
> O=C(c1cccn1-c1nnc(N2CCCC2)s1)N1CCN(c2ccc(F)cc2)CC1
    112 | 96 | . | 99
> CCN1CCN(c2nc3ncn(CC(=O)Nc4cc(F)ccc4F)c(=O)c3s2)CC1
    . | . | -23 | 99
> COc1ccc(Nc2nc3c(S(=O)(=O)c4ccccc4)nnn3c3ccc(Cl)cc23)c(OC)c1
    88 | 97 | 10 | 101
> C1=C(CCNC2=NCCCCC2)CCCC1
    122 | 98 | -12 | .

Profiles as entered above:
CCO/C([O-])=N/c1c[n+](N2CCOCC2)no1 reads Sa growth inh: 97&92; Sa growth inh second temp: 97&88; HCMV UL50-53 inh: -56&-63&-13&-13&-18&-10; GIV Gai3 FP: 103&108
C1=C(CCNC2=NCCCCC2)CCCC1 reads Sa growth inh: 122; Sa growth inh second temp: 98; HCMV UL50-53 inh: -12; GIV Gai3 FP: .
CCC1CCCCN1C(=O)Cc1ccc(Cl)cc1 (stereo not drawn) reads Sa growth inh: 88; Sa growth inh second temp: 86; HCMV UL50-53 inh: -18; GIV Gai3 FP: 100
